AF4-AF9 inh: MLL-AF4/AF9 protein interaction inhibition. P42568. AlphaScreen, biotin-AF4 peptide binding to FLAG-AF9. inhibition, % at 10 µM. 0.47% of 350,000 active;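 active means every replicate reaching a set inhibition limit, whatever the replicate mean, cut at about 25% in these data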;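 further: 0% = plate neutral control median and 100% = total signal loss; the record names both 10 and 1 µM as test concentration; the first replicate is given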
Target sequence (P42568 whole entry, looked up): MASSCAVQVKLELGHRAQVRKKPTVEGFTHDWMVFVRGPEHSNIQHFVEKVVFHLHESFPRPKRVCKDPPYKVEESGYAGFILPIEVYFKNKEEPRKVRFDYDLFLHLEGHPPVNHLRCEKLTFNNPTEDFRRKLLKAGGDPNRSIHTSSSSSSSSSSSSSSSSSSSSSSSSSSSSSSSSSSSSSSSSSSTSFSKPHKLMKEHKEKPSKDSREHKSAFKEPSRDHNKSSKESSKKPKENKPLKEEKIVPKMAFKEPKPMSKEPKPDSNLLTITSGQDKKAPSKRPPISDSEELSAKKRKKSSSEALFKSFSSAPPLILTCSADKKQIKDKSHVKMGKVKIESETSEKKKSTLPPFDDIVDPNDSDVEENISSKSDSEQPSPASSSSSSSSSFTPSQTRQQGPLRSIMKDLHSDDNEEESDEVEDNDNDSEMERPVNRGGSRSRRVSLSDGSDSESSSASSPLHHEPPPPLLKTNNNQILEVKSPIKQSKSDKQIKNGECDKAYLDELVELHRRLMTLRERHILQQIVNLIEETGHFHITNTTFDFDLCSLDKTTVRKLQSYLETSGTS
rRNA inh HTS: inhibits bacterial ribosomal RNA function over humanized ribosomes; E. coli WT GFP vs humanized-ribosome RFP mutants, fluorescence, 24 h; active compounds read low; DMSO median 0, no signal -100; GFP signal change (wild-type ribosome), % (no concentration beside the values); 1.6% of 350,000 active;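 active means significant combined selectivity score with lowered wild-type GFP, culture density cut under 30%, mutant RFP and density less affected; inactive means any of these conditions unmet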; further: one replicate is shown; some compounds called inactive have numbers as strong as hits
FGF22 binding: FGF22 (human) thermal shift binding; Q9HCT0; recombinant FGF22 thermal shift, SYPRO orange fluorescence; percent of sucrose octasulfate shift, DMSO zero; calls only at 9.99 µM; 1.5% of 340,000 active; AID 651658;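 active means melting point raised past a set limit in the mean and every replicate; three in four hits are not shown here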
Target sequence (Q9HCT0 whole entry, looked up): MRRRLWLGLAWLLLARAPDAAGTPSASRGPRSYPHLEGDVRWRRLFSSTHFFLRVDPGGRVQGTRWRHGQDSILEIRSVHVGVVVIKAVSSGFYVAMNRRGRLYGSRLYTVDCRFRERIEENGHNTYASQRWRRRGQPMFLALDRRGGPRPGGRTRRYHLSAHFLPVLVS
rRNA inh HTS OD600: second read-out of rRNA inh HTS, no call of its own (marks repeat the call); OD600 change, %; measured here: OD600 growth;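 optical density of the mix in the first replicate; 0 = DMSO median and -100 = no signal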
rRNA inh HTS RFP: also measured in rRNA inh HTS; calls as there; RFP signal change, %; measured here: RFP humanized mutant strains;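 first replicate; 0 = DMSO median and -100 = no signal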
An asterisk follows results filed as active; i = inactive. This is a subset; the hit share may differ from the screen's.

Value order – AF4-AF9 inh | FGF22 binding | rRNA inh HTS OD600 | rRNA inh HTS RFP | rRNA inh HTS
1: CCNC(=O)C1CCCN(C(=O)c2ccc3c(c2)OCO3)CC1 (configuration not stated)
 : -0.8 | i | 8 | -0.6 | 6
2: CO[C@H]1CN(C)C(=O)c2ccc(NS(=O)(=O)c3cccc(F)c3)cc2OC[C@@H](C)NC[C@@H]1C
 : -4.2 | i | 0 | -0.2 | 3
3: Cc1nc(C(F)(F)F)ccc1C(=O)N1CCC1(C)C(=O)NS(=O)(=O)c1ccc(C(C)(C)C)cc1 (configuration not stated)
 : -4.9 | i | 5 | -0.6 | 12
4: CCCNC(=O)c1cc(C2CCCN(C(=O)c3cc(F)ccc3C)C2)on1 (configuration not stated)
 : -12 | i | 13 | -1.0 | 2
5: C[C@@H]1CN([C@H](C)CO)C(=O)c2cc(NC(=O)Nc3ccc4c(c3)OCO4)ccc2O[C@@H](C)CCCCO[C@H]1CN(C)Cc1ccc2c(c1)OCO2
 : 39* | i | -49 | 34 | -17
6: C[C@@H]1CN([C@@H](C)CO)C(=O)CCCn2cc(nn2)CO[C@@H]1CN(C)Cc1ccc(O)cc1
 : -2.5 | i | 15 | -0.1 | 0
7: C[C@@H]1CN([C@H](C)CO)C(=O)Cc2cc(NS(=O)(=O)c3ccccc3)ccc2O[C@@H]1CN(C)CC1CC1
 : 2.6 | i | 5 | 1.2 | 0
8: C[C@@H]1CN([C@@H](C)CO)C(=O)c2cc(NC(=O)Cc3ccccc3)ccc2O[C@H]1CN(C)S(=O)(=O)c1cn(C)cn1
 : -2.6 | i | 6 | -2.3 | 4
9: CC=Cc1ccc2n(c1=O)C[C@H]1[C@H](CO)[C@@H](C(=O)N3CCCCC3)N(CC3CC3)[C@@H]21 (mixture of isomers)
 : -1.8 | i | 0 | 0.7 | 1
10: C[C@@H]1CCCCO[C@@H](CN(C)S(=O)(=O)c2ccccc2)[C@H](C)CN([C@@H](C)CO)C(=O)c2cc(NC(=O)Nc3cccc4ccccc34)ccc2O1
 : -10 | i | 1 | -4.5 | 1
11: CC1(C(=O)NS(=O)(=O)c2cccc(OC(F)F)c2)CCN1C(=O)C1CCCCC1 (configuration not stated)
 : 5.6 | i | 8 | 0.5 | 18
12: N#Cc1ccc(C(=O)N2CCC3CC2c2cc(-c4ccccc4)ccc23)cc1 (configuration not stated)
 : -0.4 | i | -21 | 6.1 | 2
13: COc1ccccc1-c1cnc2c(c1)C(=O)N([C@@H](C)CO)C[C@@H](C)[C@@H](CN(C)C(=O)CC1CC1)O2
 : -8.1 | i | 5 | -0.5 | -2
14: C[C@H](CO)N1C[C@H](C)[C@H](CN(C)C(=O)NC2CCCCC2)Oc2c(NC(=O)c3cnccn3)cccc2C1=O
 : -2.0 | i | 1 | -0.8 | 0
15: C[C@@H]1CN([C@H](C)CO)C(=O)c2cccc(NS(C)(=O)=O)c2O[C@H]1CN(C)S(=O)(=O)c1cccs1
 : 0.3 | i | -3 | 1.1 | 2
16: Cc1ccc(S(=O)(=O)NNC(=O)c2cc(C)c(C)cc2N)cc1
 : -2.1 | i | -10 | 5.3 | -12
17: C[C@@H]1CN([C@@H](C)CO)C(=O)c2cc(NC(=O)c3ccncc3)ccc2O[C@@H](C)CCCCO[C@@H]1CN(C)Cc1ccncc1
 : -3.3 | i | 3 | -2.8 | -1
18: CCS(=O)(=O)NCC[C@@H]1CC[C@@H](NC(=O)C2CCC2)[C@@H](CO)O1
 : -2.6 | i | 3 | 1.0 | 2
19: COCC#Cc1cnc2c(c1)C(=O)N([C@H](C)CO)C[C@H](C)[C@@H](CN(C)C(=O)c1cccnc1)O2
 : -1.6 | i | -6 | -1.3 | 6
20: COc1ccc(CNC(=O)C[C@H]2C[C@@H]3c4cc(NC(=O)CN(C)C)ccc4O[C@@H]3[C@@H](CO)O2)cc1
 : 0.6 | i | 1 | 0.5 | 3
21: COc1cccc(-c2cccc(-c3nc(C(=O)NCCCN4CCOCC4)cc4c3[C@H](CCO)N(S(=O)C(C)(C)C)C4)c2)c1 (some centres not stated)
 : -3.8 | i | -11 | 2.7 | -16
22: C[C@@H]1CN([C@@H](C)CO)C(=O)c2cccc(NC(=O)NC3CCCCC3)c2O[C@@H]1CN(C)S(=O)(=O)c1ccc(Cl)cc1
 : -0.9 | i | -17 | 0.7 | -4
23: CN1C(=O)c2cc(NC(=O)C3CCCCC3)ccc2OC[C@@H]2O[C@@H](CC(=O)NC3CCCC3)CC[C@H]21
 : -2.2 | i | -1 | 1.0 | 0
24: C[C@@H]1CCCCO[C@@H](CN(C)C(=O)c2ccncc2)[C@H](C)CN([C@H](C)CO)C(=O)c2cc(NS(C)(=O)=O)ccc2O1
 : -0.9 | i | 3 | 0.2 | 3
25: O=C(Nc1ccc(Oc2ccccc2)cc1)c1csc([C@H]2C[C@H](O)[C@@H](CO)O2)n1
 : -5.5 | i | -17 | -0.9 | -1
26: O=C(Nc1cccc(F)c1)N1C[C@H]2[C@@H](c3ccccc31)[C@@H](CO)N2C(=O)c1ccccc1F
 : -0.7 | i | -3 | 1.5 | -1
27: CC(C)NC(=O)N(C)C[C@@H]1Oc2ncc(-c3ccc(C(=O)N(C)C)cc3)cc2C(=O)N([C@@H](C)CO)C[C@@H]1C
 : -2.5 | i | 1 | -1.8 | 3
28: N#Cc1ccccc1NC(=O)COC(=O)c1c[nH]c2ccccc12
 : -6.1 | i | 0 | 0.0 | -1
29: O=C(C1CCCCC1)N1CC2(C1)[C@H](c1ccccc1)[C@@H](CO)N2C(=O)c1cccnc1
 : -0.6 | i | 17 | 0.3 | 3
30: Cc1ccc(S(=O)(=O)NCc2ccccc2)cc1C(=O)N(C)CC(=O)Nc1ccccc1Br
 : 2.0 | i | -19 | 6.2 | -2

Some of the entries so far, bar-delimited.
nr | SMILES | AF4-AF9 inh | FGF22 binding | rRNA inh HTS OD600 | rRNA inh HTS RFP | rRNA inh HTS
14 | C[C@H](CO)N1C[C@H](C)[C@H](CN(C)C(=O)NC2CCCCC2)Oc2c(NC(=O)c3cnccn3)cccc2C1=O | -2.0 | i | 1 | -0.8 | 0
28 | N#Cc1ccccc1NC(=O)COC(=O)c1c[nH]c2ccccc12 | -6.1 | i | 0 | 0.0 | -1
21 | COc1cccc(-c2cccc(-c3nc(C(=O)NCCCN4CCOCC4)cc4c3[C@H](CCO)N(S(=O)C(C)(C)C)C4)c2)c1 (some centres not stated) | -3.8 | i | -11 | 2.7 | -16
3 | Cc1nc(C(F)(F)F)ccc1C(=O)N1CCC1(C)C(=O)NS(=O)(=O)c1ccc(C(C)(C)C)cc1 (configuration not stated) | -4.9 | i | 5 | -0.6 | 12
8 | C[C@@H]1CN([C@@H](C)CO)C(=O)c2cc(NC(=O)Cc3ccccc3)ccc2O[C@H]1CN(C)S(=O)(=O)c1cn(C)cn1 | -2.6 | i | 6 | -2.3 | 4

The list continues.
Value order – AF4-AF9 inh | FGF22 binding | rRNA inh HTS OD600 | rRNA inh HTS RFP | rRNA inh HTS
31: C[C@H]1CN([C@@H](C)CO)S(=O)(=O)c2ccc(/C=C/c3ccccc3)cc2O[C@H]1CN(C)CC1CC1
 : 29* | i | -9 | 7.5 | 2
32: CN1[C@H](C(=O)N2CCCCC2)[C@@H](CO)[C@@H]2Cn3c(ccc(/C=C/c4ccccc4)c3=O)[C@@H]21
 : -0.8 | i | -9 | 0.4 | -4
33: Cc1ccccc1-c1cnc2c(c1)C(=O)N([C@@H](C)CO)C[C@H](C)[C@H](CN(C)C(=O)CN(C)C)O2
 : -2.6 | i | 2 | -1.0 | 2
34: CSCc1c(C(=O)OCC(=O)c2ccc[nH]2)oc2ccccc12
 : 2.5 | i | -1 | 0.4 | 0
35: C[C@@H]1CN([C@@H](C)CO)C(=O)Cc2cc(NC(=O)Nc3ccc(C(F)(F)F)cc3)ccc2O[C@@H]1CN(C)Cc1ccc2c(c1)OCO2
 : -0.3 | i | 4 | 7.3 | 6
36: C[C@H](CO)N1C[C@H](C)[C@@H](CN(C)C(=O)C2CCCCC2)Oc2cc(C#CC(C)(C)O)ccc2S1(=O)=O
 : 2.6 | i | 1 | -0.6 | 0
37: C[C@H](CO)N1C[C@H](C)[C@@H](CN(C)C)Oc2ncc(-c3cccc(F)c3)cc2C1=O
 : -0.1 | i | -2 | 2.5 | 3
38: COc1ccc2c3c([nH]c2c1)[C@H](CO)N(C(=O)C1CCC1)CC31CCN(S(C)(=O)=O)CC1
 : 0.6 | i | -2 | -3.8 | 0
39: CCCC#Cc1cnc2c(c1)C(=O)N([C@H](C)CO)C[C@@H](C)[C@H](CN(C)C(=O)CN1CCOCC1)O2
 : -3.2 | i | 14 | -3.7 | 8
40: C[C@@H]1CN([C@H](C)CO)C(=O)c2cccc(NC(=O)c3nc4ccccc4s3)c2O[C@H]1CN(C)C(=O)Nc1ccc(C(F)(F)F)cc1
 : 2.7 | i | -6 | -1.8 | -7
41: CN(C)CC#Cc1ccc([C@@H]2[C@@H](CO)N3CCCCN(C(=O)CN(C)C)C[C@H]23)cc1
 : 6.9 | i | 10 | -3.1 | 8
42: COCC(=O)Nc1ccc2c(c1)OC[C@H](C)N(C(=O)CC1CC1)C[C@H](C)[C@H](OC)CN(C)C2=O
 : 0.0 | i | 5 | -0.3 | 2
43: C[C@@H]1CN([C@H](C)CO)C(=O)c2cc(NC(=O)Nc3cccc4ccccc34)ccc2O[C@@H]1CN(C)Cc1ccc(C(=O)Nc2ccccc2N)cc1
 : -1.6 | i | 1 | 0.8 | -2
44: O=C(OCc1ccccc1)N(CCCCN(CCCNCc1ccccc1)C(=O)OCc1ccccc1)CCCNCc1ccccc1
 : 20 | i | -76 | -13 | -51
45: N#C[C@H]1[C@@H](c2ccccc2)[C@H](CO)N1C(=O)Nc1cccc(F)c1
 : -0.6 | i | 4 | -1.9 | -1
46: COc1ccccc1-c1cnc2c(c1)C(=O)N([C@H](C)CO)C[C@H](C)[C@H](CN(C)Cc1ccc(C(=O)O)cc1)O2
 : -22 | i | -3 | 3.1 | 0
47: Cc1noc(C)c1NC(=O)Nc1cccc2c1O[C@H](CN(C)C(=O)Nc1ccc3c(c1)OCO3)[C@H](C)CN([C@H](C)CO)C2=O
 : -0.6 | i | 5 | -3.8 | 3
48: C[C@@H]1CN([C@@H](C)CO)C(=O)c2cccc(NC(=O)c3ccncc3)c2O[C@@H]1CN(C)Cc1ccc(Cl)c(Cl)c1
 : -0.3 | i | -16 | 2.5 | -4
49: Cc1ccc(S(=O)(=O)N(C)C[C@@H]2Oc3c(NC(=O)Nc4ccc(F)cc4)cccc3C(=O)N([C@@H](C)CO)C[C@@H]2C)cc1
 : 4.1 | i | -19 | -1.8 | -2
50: O=C(C[C@H]1CC[C@@H]2[C@H](COC[C@@H](O)CN2C(=O)Nc2cccc(F)c2)O1)NCc1ccccc1F
 : -7.7 | i | -11 | 6.8 | -14
51: COc1ccccc1CN1C[C@H](C)[C@H](OC)CN(C)C(=O)c2ccc(NC(C)=O)cc2OC[C@H]1C
 : 2.2 | i | 3 | -3.0 | 3
52: C[C@H](CO)N1C[C@H](C)[C@@H](CN(C)C(=O)Nc2ccc(C(F)(F)F)cc2)Oc2c(NC(=O)Nc3ccc(F)cc3)cccc2C1=O
 : -7.0 | i | 2 | -2.4 | -4
53: COCC#Cc1cnc2c(c1)C(=O)N([C@H](C)CO)C[C@H](C)[C@H](CN(C)C(=O)C1CCOCC1)O2
 : -5.0 | i | 11 | -2.7 | 5
54: Cc1ccc2cc(N)ccc2n1
 : -0.6 | i | 5 | 0.6 | -3
55: CCOC(=O)C1(C)CCN1C(=O)c1ccc(F)c(Cl)c1 (configuration not stated)
 : -0.5 | i | 20 | -0.8 | 7
56: COCC#Cc1ccc2c(c1)O[C@@H](CN(C)CC1CC1)[C@@H](C)CN([C@H](C)CO)S2(=O)=O
 : 0.5 | i | 3 | 0.3 | 11
57: CCCCc1c(-c2ccccc2Br)ncn1CCc1ccccc1OC
 : 4.0 | i | -78 | -18 | -63
58: CC(=O)N(C)C[C@@H]1Oc2ncc(C#CC3(O)CCCC3)cc2C(=O)N([C@H](C)CO)C[C@@H]1C
 : -2.7 | i | 8 | -1.6 | 4
59: CN1c2ccc(-c3ccccc3)cc2[C@H]2[C@H](CCN2C(=O)c2cccc(F)c2)[C@@H]1CO
 : 6.5 | i | -4 | 0.2 | -3
60: O=C(O)C[C@@H]1C[C@H]2c3cc(NC(=O)Cc4ccncc4)ccc3O[C@H]2[C@H](CO)O1
 : -2.3 | i | 3 | -0.2 | 2
61: C[C@H]1CN([C@@H](C)CO)C(=O)c2cc(NC(=O)NC3CCCCC3)ccc2O[C@@H]1CN(C)C(=O)Nc1ccc(F)cc1
 : -0.2 | i | 1 | -0.6 | -1
62: C[C@@H](O)C#Cc1ccc([C@@H]2[C@@H](CO)N3CCCCN(C(=O)c4cccc(F)c4)C[C@@H]23)cc1
 : -6.6 | i | -3 | 4.1 | -2
63: C[C@@H]1CN([C@H](C)CO)C(=O)c2cc(C#CCN(C)C)cnc2O[C@H]1CN(C)C(=O)NC1CCCCC1
 : -3.1 | i | 6 | 0.6 | 6
64: C[C@@H]1CN([C@@H](C)CO)S(=O)(=O)c2ccc(C#C[C@@H](C)O)cc2O[C@@H]1CN(C)C(=O)Nc1ccccc1
 : -2.5 | i | -6 | 0.3 | -4

From PubChem
